RE007 growth inh – less growth of the S. pombe RE007 Vpr strain; S. pombe RE007 Vpr strain, BacTiter-Glo ATP luminescence, 24 h; control for the full effect not named in the record; Potency, µM (highest dose often 92.2 µM), for inactives: top-dose activity change, negative = less growth; hit rate 0.21% among 360,000; AID 651644; active = well fitted falling curve with a large enough effect; inconclusive = small, poorly fitted or top-dose-only effect; inactive = no such curve, though single readings can be large or run the other way;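 note: % is set by controls: 0 for no effect and ±100 for the full control effect; nearly all actives have a fitted effect of over 50% in size; the assay follows cell death caused by Vpr and the record does not say whether a fall means rescue or toxicity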
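Fission yeast strain RE007, carrying one chromosomally integrated HIV-1 vpr copy, was seeded at OD 0.01 in PMG+AL medium with 23 nL pinned compound. After 24 h at 30 °C and 99% humidity, viability was read by BacTiter-Glo luminescence.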
MARV entry inh – Marburg virus entry inhibition; Potency, µM (top dose mostly 37.8 µM), for inactives: top-dose activity change, negative = inhibition, hits mostly inhibitors; hit rate 1.8% among 300,000; Marburg virus pseudotyped entry inhibition, cell reporter; control for the full effect not named in the record; about a third of the inactives were read at about 46 µM; AID 540276; active = well fitted inhibition curve with a large enough effect; inconclusive = small, poorly fitted or top-dose-only effect, or effect the other way; inactive = flat fitted curve, though single readings scatter; tested in HEK293 cells; about a fifth of its hits are not listed in these tables; note: % is set by controls: 0 for no effect and ±100 for the full control effect; luciferase read-out
SARS PLP yeast – blocks SARS-CoV papain-like protease in a yeast assay | AID 485353 | Potency, µM (titrated, usually from 32.9 µM), inactives show at the highest dose activity, positive = growth rescue | S. cerevisiae expressing SARS-CoV PLpro, growth rescue; control for the full effect not named in the record | hit rate 0.19% among 330,000; active means well fitted rising curve with a large enough effect; inconclusive means small, poorly fitted or top-dose-only effect; inactive means no such curve, though single readings can be large or run the other way; note: 0% is about no effect; nearly all actives have a fitted effect of over 55% in size; growth read by luminescence after 48 h
Lassa entry inh – Lassa virus entry inhibition; Lassa virus pseudotype entry inhibition, cell reporter; control for the full effect not named in the record; Potency, µM (top dose mostly 37.9 µM), inactives show at the highest dose activity change, negative = inhibition, usual class: inhibitors; hit rate 1.2% among 300,000; AID 540256; active means well fitted inhibition curve with a large enough effect; inconclusive means small, poorly fitted or top-dose-only effect, or effect the other way; inactive means flat fitted curve, though single readings scatter; tested in HEK293 cells; note: % is set by controls: 0 for no effect and ±100 for the full control effect; nearly all actives have a fitted effect of over 50% in size; luciferase read-out
2A StopGo – FMDV 2A StopGo reporter, luciferase signal. hit rate 1.2% among 410,000. human cells with a luciferase reporter of 2A StopGo recoding; control for the full effect not named in the record. Potency, µM (titrated, usually from 57.9 µM), for the others: at the highest dose signal change, negative = less light. AID 1159524; active = well fitted falling curve with a large enough effect; inconclusive = small, poorly fitted or top-dose-only effect; inactive = no such curve, though single readings can be large or run the other way; tested in HEK293T cells; note: % is set by controls: 0 for no effect and ±100 for the full control effect; nearly all actives have a fitted effect of over 45% in size; luciferase light after 4 h
Cruzain Triton – blocks cruzain activity in presence of Triton detergent | purified cruzain, Z-FR-AMC fluorescence, 0.01% Triton | AID 1478 | Potency, µM, inactives show max response, negative = inhibition, most hits filed as inhibitors | hit rate 0.43% among 200,000;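 note: plate controls were neutral wells for no effect and buffer without enzyme for full effect; nearly all actives have a fitted effect of over 40% in size; top concentration of the series not given in the record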
Target sequence (P25779 123-467 limits assumed): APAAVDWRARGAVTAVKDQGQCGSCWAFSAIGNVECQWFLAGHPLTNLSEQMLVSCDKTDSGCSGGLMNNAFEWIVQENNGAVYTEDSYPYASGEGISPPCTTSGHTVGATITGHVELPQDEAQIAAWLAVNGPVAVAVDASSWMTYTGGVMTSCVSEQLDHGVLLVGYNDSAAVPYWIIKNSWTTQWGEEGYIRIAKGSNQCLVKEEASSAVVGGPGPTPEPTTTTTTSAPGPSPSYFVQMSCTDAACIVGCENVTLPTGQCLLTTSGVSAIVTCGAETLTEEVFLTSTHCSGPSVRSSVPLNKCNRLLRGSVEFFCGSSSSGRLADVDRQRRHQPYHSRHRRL
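Steps: dispense cruzain (1.5 nM final) in acetate buffer pH 5.5 with DTT and 0.01% Triton X-100; pin-transfer compounds; incubate 15 min RT; add Z-FR-AMC (2 uM final); read fluorescence every 30 s, using the 60 s intensity change.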
Cruzain inh noDet – cruzain (T. cruzi) inhibition without detergent. hit rate 2.3% among 200,000. AID 1476. P25779. purified cruzain, Z-FR-AMC fluorescence, no detergent. Potency, µM, for inactives: max response, negative = inhibition, usual class: inhibitors;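 note: plate controls were enzyme without inhibitor for no effect and buffer without enzyme for full effect; nearly all actives have a fitted effect of over 40% in size; top concentration of the series not given in the record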
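Detergent-free condition (0.00005% Triton X-100) in acetate buffer pH 5.5 with DTT. 1.5 nM enzyme and compound were pre-mixed 15 min, then 2 uM Z-FR-AMC substrate added; reaction progress from fluorescence change between first and third reads (60 s).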
NS1 inh – blocks influenza NS1 protein function; S. cerevisiae slowed by influenza A NS1, growth recovery by OD600; Potency, µM (titrated, usually from 46.1 µM), inactives show at the highest dose activity, positive = more growth; hit rate 0.4% among 270,000; AID 2326; active means well fitted rising curve with a large enough effect; inconclusive means small, poorly fitted or top-dose-only effect; inactive means no such curve, though single readings can be large or run the other way; note: nearly all actives have a fitted effect of over 50% in size
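Read-out: OD600 growth recovery of NS1-expressing budding yeast. Cells grown overnight at 30C in -URA glucose medium, washed, resuspended and diluted 1:100 in 2% galactose assay medium, pH 6.0. Same strain lacking NS1 served as positive control.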
Starred values were filed as active, the others as inactive; ? = inconclusive; . = no result given; & = joins results of further samples; [ ] = remark or other dose. Unless noted, calls come from the whole dose curve; as a rule, active = well fitted curve in the direction sought with a large enough effect; inconclusive = small, poorly fitted or top-dose-only effect, or another doubt; inactive = no such curve, though single readings can be large; an effect the other way counts as inactive or inconclusive. Potency is the fitted concentration of half-maximal effect. Hits appear at their usual frequency, and some 4.8% of all compounds hit somewhere here.

SMILES	RE007 growth inh	MARV entry inh	SARS PLP yeast	Lassa entry inh	2A StopGo	Cruzain Triton	Cruzain inh noDet	NS1 inh
COc1ccc(C2=NN(c3nc(-c4ccccc4)c(CC(=O)O)s3)C(c3ccco3)C2)cc1 (stereo not given)	-5%	?	-7%	?	-1%	16µM*	13µM*	25%
CC(=O)Nc1ccccc1C(=O)C(=O)Nc1ccc(C(=O)N2CCOCC2)cc1	15%	24%[46.1 µM]	-2%	-4%	6%	.	.	.
Cc1nc2ccccc2nc1-c1ccc([N+](=O)[O-])cc1	-10%	7%[46.1 µM]	.	0%[46.1 µM]	18%	.	.	.
CCCCNC(=S)NNC(=O)c1ccoc1C	15%	3%	0%	25%[14.3 µM]	81%[activator]	-3.1%	-2%	-9%
O=C(O)C1CC(=O)N(CCc2ccc(F)cc2)C1 (stereo not given)	7%	7%	2%	25%	-6%	.	.	15%
Cc1cc(O)c(-c2cc(O)c(C)cc2O)cc1O	0%	.	-5%	.	?	-1.8%	-7%	8%&-8%
Cc1ccc(C(C)CCN2CCC(n3nccc3NC(=O)c3ccccc3)CC2)o1 (stereo not given)	-11%	-4%	?	0%	-17%	.	.	-3%
Cn1cnc2cc(OC(=O)c3ccccc3)ccc21	-7%	14%	-8%	20%	.	0.9%	3%	-53%
O=C(COc1cccc2ccccc12)N1c2ccccc2CCc2ccccc21	-12%	?	-16%	?	?	-2.4%	?	-13%
Cn1c(N)c(C(=O)COC(=O)Cc2ccc(Cl)cc2Cl)c(=O)n(C)c1=O	-2%	-3%	0%	-6%	6%	.	.	.
Cc1ccc(CN2C(=O)c3ccccc3S(=O)(=O)c3ccc(C(=O)OCC4CCCO4)cc32)cc1 (stereo not given)	.	.	.	-3%[46.1 µM]	4%	-1.0%	-18%	.
CC1CCN(C(=O)c2ccc3c(c2)OCO3)CC1	-13%	.	1%	.	20%	.	.	?
CC1CCCC(NC(=O)COC(=O)CCC(=O)c2ccc(F)cc2)C1C (stereo not given)	4%	17%	-2%	9%	-20%	.	.	.
COc1cc(C(=O)Nc2scc(-c3ccccc3)c2C(=O)O)cc(OC)c1OC	10%	.	1%	.	-25%	.	.	4%
COc1ccc(C(CNC(=O)Nc2ccc(Cl)cc2)N2CCN(C)CC2)cc1 (stereo not given)	-7%	-8%[46.1 µM]	-3%	-9%[46.1 µM]	-20%	.	.	-9%
Cn1cnc(S(=O)(=O)N2CCN(C(c3ccc(F)cc3)c3ccc(F)cc3)CC2)c1	-17%	-28%[46.1 µM]	-5%	16%[46.1 µM]	-19%	.	.	-15%
COc1ccc(CCN(Cc2ccccn2)C(=S)Nc2cccc(SC)c2)cc1OC	-8%	-3%[46.1 µM]	5%	0%	6%	.	.	.
COc1ccc(-c2nc3c(c(SCC(=O)Nc4ccc(C(=O)O)cc4)n2)Cc2ccccc2O3)cc1	.	3%[46.1 µM]	.	19%[46.1 µM]	-8%	-1.1%	2%	.
Cc1ccc(-n2ncc3c2CCCC3NC(=O)c2cnccn2)cc1C (stereo not given)	-10%	?	-3%	?	0%	.	.	0%
COc1ccc(CCN(Cc2cc3cc4c(cc3[nH]c2=O)OCO4)C(C)=O)cc1OC	.	.	-5%	.	.	-3.2%	-7%	-36%
O=c1c2[nH]c3cccc(Cl)c3c2ncn1CC1CCCO1 (stereo not given)	-5%	?	1%	?	5%	.	.	-1%
CCS(=O)(=O)c1ccc(-c2csc(-c3ccccc3)n2)c(Cl)c1Cl	-11%	?	-5%	?	-25%	3.4%	-16%	1%
Cn1c(N)c(C(=O)CSc2nnc(C3CC3)n2Cc2ccccc2)c(=O)n(C)c1=O	-22%	12%[46.1 µM]	-4%	-22%[46.1 µM]	4%	.	.	.
CCOC(=O)C1=C(N)OC2=C(C(=O)CCC2)C1c1ccccc1OC (stereo not given)	-13%	.	0%	.	4%	.	.	4%
O=S(=O)(Nc1ccc2cn[nH]c2c1)c1ccc(Cl)s1	24%	-10%[46.1 µM]	2%	-1%	26%	.	.	.
O=C(O)CSc1nnc(Cn2c(=O)sc3ccccc32)n1-c1cccc(Cl)c1	11%	16%	13%	26%	19%	0.8%	-1%	8%
Cc1ccc(C(=O)COC(=O)CNC(=O)Cc2ccccc2)cc1[N+](=O)[O-]	-4%	1%[46.1 µM]	0%	17%	-6%	-17%	-13%	-13%
COc1cc(S(=O)(=O)N(Cc2cccc(OC)c2OC)CC2CCCO2)ccc1-n1cnnn1 (stereo not given)	0%	.	-1%	.	7%	.	.	-10%
O=C(CSc1nc2ccccc2[nH]1)N1CCN(C(=O)c2ccco2)CC1	2%	?	-27%	-5%	-7%	-1.0%	-7%	11%
COc1cc(Cl)ccc1OCc1cc(C(=O)N2CCCCCCC2)no1	17%	.	0%	.	3%	.	.	-20%
COc1ccc(CN(CC(=O)NCc2ccccc2)C(=O)c2csnn2)cc1	9%	.	0%	.	-1%	.	.	0%
COc1cc(S(=O)(=O)N(CCc2ccccc2)Cc2cccs2)ccc1-n1cnnn1	10%	-16%	-13%	?	.	-4.0%	-1%	8%
CSc1cc(-c2ccco2)oc1C(=O)c1ccco1	-2%	14%[46.1 µM]	.	4%[46.1 µM]	-21%	.	.	.
Cc1cc(C)n(CC(O)Cn2c3ccccc3c3ccccc32)c(=O)n1 (stereo not given)	1%	11%	5%	-4%	.	0.7%	?	-8%
Cc1ccc(C(=O)Nc2nnc(S(=O)(=O)N3CCCCCC3)s2)cc1	1%	.	1%	16%[46.1 µM]	56%&26%[activator]	-7.7%	-3%	5%
NCCCC[C@H](NC(=O)C1CCNCC1)c1nnc([C@@H](N)CO)o1	10%	.	0%	.	-3%	.	.	2%
CC1Cc2ccccc2N1C(=O)CNc1ccccc1N1CCCCC1 (stereo not given)	-11%	0%	-4%	2%	-26%	.	.	.
CC(NC(=O)c1ccc(Cl)cc1)c1nnc(SCC(=O)NC2=NCCS2)n1C (stereo not given)	20%	-5%[46.1 µM]	-1%	9%[46.1 µM]	2%	.	.	0%
Cc1ccc(C)c(NC(=O)c2ccc(N(C)S(C)(=O)=O)cc2)c1	-4%	6%	-6%	21%	-7%	3.1%	3%	-2%
Cc1ccc(CCc2nnc(SCC(=O)Nc3ccccc3Cl)n2-c2ccccc2)o1	12%	?	5%	?	0%	-4.5%	-13%	-19%
COc1cccc(OC)c1C(=O)NNC(=O)c1ccc(F)cc1	-7%	2%	0%	4%	14%	.	.	0%
COC(=O)c1ccc(NC(=O)c2c(NCc3cccc(F)c3)sc3c2CCCC3)cc1	.	.	.	-9%[46.1 µM]	0%	-13%	-11%	.
Cc1cc(C(=O)CSc2nc(N)cc(N)n2)c(C)n1-c1cccc(C(F)(F)F)c1	-12%	-27%	8%	-8%	?	-6.6%	?	?
Cc1ccc(OCCN2C(=O)c3ccccc3C2=O)c([N+](=O)[O-])c1	4%	?	14%	11%	35%[activator]	-4.4%	5%	0%
Cc1ccc(C(=O)N2CCCCC2CCN2CCCCC2)cc1 (stereo not given)	.	-4%[46.1 µM]	.	5%[46.1 µM]	-7%	2.1%	-3%	.
NS(=O)(=O)c1ccc2c(c1)C(=NO)c1cc(S(N)(=O)=O)ccc1-2	-1%	4%[46.1 µM]	7%	1%[46.1 µM]	8%	.	.	9%
CSc1nnc2c(=O)[nH]c(=O)n(C)c2n1	13%	-13%[46.1 µM]	.	0%[46.1 µM]	-4%	.	.	.
CCOC(=O)c1cnn(-c2ccccc2)c1NC(=O)c1ccccc1	-11%	13%	-1%	23%	-14%	0.6%	8%	-4%
Cc1nnc(NC(=O)CSc2nccn2Cc2ccc(F)cc2)s1	4%	0%&0%[46.1 µM]	5%	?	-5%&-8%	-0.1%	3%	13%
O=C(CSc1nnc(-c2ccoc2)o1)N1CCOCC1	13%	-15%	3%	2%	21%	5.6%	4%	-1%

Next records.
SMILES	RE007 growth inh	MARV entry inh	SARS PLP yeast	Lassa entry inh	2A StopGo	Cruzain Triton	Cruzain inh noDet	NS1 inh
Cn1nccc1C(=O)N1CCN(c2ccccc2Cl)CC1	7%	.	-2%	.	-29%	.	.	2%
Cc1ccc(CN=c2c([N+](=O)[O-])nn(-c3cccc(Cl)c3)n2O)cc1	-3%	17%[46.1 µM]	-3%	?	-16%	.	.	.
O=C(CNC(=O)c1ccccc1C(=O)O)c1ccccc1	-1%	7%&7%	12%	?	57%[activator]	0.9%	1%	-6%
CCOC(=O)c1cc(C)n(CC2CCC(C(=O)Nc3ccc(Cl)cc3)CC2)c1C (stereo not given)	.	.	.	-22%[46.1 µM]	?	-6.4%	-6%	.
Cc1cc(=O)[nH]c(SCC(=O)c2c(N)n(C)c(=O)n(C)c2=O)n1	22%	14%[46.1 µM]	1%	11%	-10%	-1.5%	6%	3%
COC(=O)c1sc(NC(=O)CSc2nncs2)c(C(=O)OC)c1C	27%	?	9%	-7%	-1%	0.4%	?	19%
N#Cc1ccc(C(=O)NC2CCCc3ccccc32)cc1 (stereo not given)	-5%	2%[46.1 µM]	0%	-27%	12%	.	.	.
N=c1c(-c2nc3ccccc3[nH]2)cc(C(=O)c2ccco2)nn1-c1ccccc1	9%	?	2%	-8%	-24%	-6.9%	7%	4%
COc1ccc(C)cc1NC(=O)Cn1cnnn1	1%	-2%[46.1 µM]	-1%	17%[46.1 µM]	-6%	.	.	.
CC(NCc1ccc(-c2ccccc2)cc1)C(O)c1ccccc1 (stereo not given)	-6%	?	-32%	4.6µM*	?	-2.9%	0%	-16%
CS(=O)(=O)N1CC(C(=O)NN)Oc2ccc(Cl)cc21 (stereo not given)	-3%	-5%	0%	1%	-13%	-2.9%	2%	17%
COc1ccccc1N1CCN(CCCNC(=O)c2cnn(-c3cccc(Cl)c3)c2C2CCN(C(=O)OC(C)(C)C)CC2)CC1	.	.	.	?	-23%	-0.4%	11%	.
CCOc1ccc(N(CC(=O)NC2CCCCC2)S(=O)(=O)c2ccccc2)cc1	-1%	18%[46.1 µM]	-2%	.	15%	.	.	10%
O=C(CCCn1c(=O)c2ccccc2n(Cc2ccc(F)cc2Cl)c1=O)NCCc1ccc(Cl)cc1	.	-16%[46.1 µM]	.	-13%[46.1 µM]	?	-0.8%	4%	.
CC(C)=CCCC1(C)C=Cc2c(c(C)cc3c2[nH]c2cc(O)ccc23)O1 (stereo not given)	?	.	-4%	.	0%	.	.	5%

Source: PubChem (National Center for Advancing Translational Sciences (NCATS))
